# Screens from PubChem BioAssay.
# FGF22 binding – shifts melting point of recombinant human FGF22 | Q9HCT0 | recombinant FGF22 thermal shift, SYPRO orange fluorescence; percent of sucrose octasulfate shift, DMSO zero | calls only at 9.99 µM | hit rate 1.5% among 340,000 | AID 651658;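 active means melting point raised past a set limit in the mean and every replicate; three in four hits are not shown here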
# Target sequence (Q9HCT0 whole entry, looked up): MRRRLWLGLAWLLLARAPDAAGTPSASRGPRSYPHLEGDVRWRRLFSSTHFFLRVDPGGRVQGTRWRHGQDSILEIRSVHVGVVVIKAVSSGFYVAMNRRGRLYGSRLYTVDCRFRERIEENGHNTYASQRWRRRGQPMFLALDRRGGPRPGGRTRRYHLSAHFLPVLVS
# B2AR ag – human beta-2 adrenergic receptor agonism by FAP; P07550; Am2.2-beta2AR cells, FAP receptor internalization, flow cytometry; reference of the scale not given here; response, % (concentration not given with the values); hit rate 0.43% among 340,000;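 active means response above a set limit, near 3 SD of response in nonfluorescent compounds, cut at about 42% in these data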;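 further: stock transfer was 100 nL into about 11 µL; a reference agonist was the positive control; negative values mostly stem from fluorescent compounds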
# Target sequence (P07550 whole entry, looked up): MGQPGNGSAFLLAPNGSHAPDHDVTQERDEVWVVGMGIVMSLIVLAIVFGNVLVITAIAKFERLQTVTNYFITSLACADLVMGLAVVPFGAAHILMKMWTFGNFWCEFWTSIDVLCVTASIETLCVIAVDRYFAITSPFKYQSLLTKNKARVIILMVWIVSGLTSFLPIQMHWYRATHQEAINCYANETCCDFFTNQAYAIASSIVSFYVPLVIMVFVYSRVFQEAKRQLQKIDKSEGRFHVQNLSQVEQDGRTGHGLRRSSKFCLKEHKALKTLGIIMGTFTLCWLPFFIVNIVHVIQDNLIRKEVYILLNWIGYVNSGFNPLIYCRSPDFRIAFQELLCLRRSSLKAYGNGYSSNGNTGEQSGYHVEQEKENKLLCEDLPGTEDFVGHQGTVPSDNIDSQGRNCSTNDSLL
# Ecoli rRNA inh – inhibitors of bacterial rRNA selective over humanized ribosomes; E. coli WT GFP vs humanized-ribosome RFP mutants, fluorescence, 24 h; active compounds read low; DMSO median 0, no signal -100; hit rate 1.6% among 350,000; GFP signal change (wild-type ribosome), % (no concentration beside the values);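 active means significant combined selectivity score with lowered wild-type GFP, culture density cut under 30%, mutant RFP and density less affected; inactive means any of these conditions unmet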; further: one replicate is shown; some compounds called inactive have numbers as strong as hits
# Ecoli growth – inhibitors of Escherichia coli growth. AID 1053175. OD600, 23 h; active compounds read low. OD600 absorbance (concentration not given with the values). hit rate 0.21% among 330,000;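 active means OD600 absorbance below the run mean of sample wells minus 3.6 SD, in any replicate, cut at about 0.56 in these data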;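 further: stock transfer was 300 nL into about 60 µL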
# UCH37 DUB inh – blocks the human deubiquitinase UCH37; Q9Y5K5; purified proteasome/UCH37, Ub-AMC cleavage fluorescence; inhibition, % (no concentration beside the values); hit rate 0.33% among 330,000;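 active means mean of two replicates above 20%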;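 further: 0% = compound-free wells with enzyme and 100% = wells lacking proteasome; stock transfer was 100 nL into about 20 µL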
# Target sequence (Q9Y5K5 whole entry, looked up): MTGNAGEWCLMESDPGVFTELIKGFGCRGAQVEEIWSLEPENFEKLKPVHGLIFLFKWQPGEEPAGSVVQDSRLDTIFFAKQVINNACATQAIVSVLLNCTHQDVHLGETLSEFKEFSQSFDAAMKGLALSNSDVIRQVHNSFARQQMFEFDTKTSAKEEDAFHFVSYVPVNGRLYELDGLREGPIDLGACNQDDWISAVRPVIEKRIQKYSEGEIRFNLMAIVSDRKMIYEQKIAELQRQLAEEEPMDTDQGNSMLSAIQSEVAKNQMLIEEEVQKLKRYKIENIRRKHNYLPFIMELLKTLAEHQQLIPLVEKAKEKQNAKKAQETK
#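 System: Proteasome-associated human UCH37 deubiquitinase; Input: 0.15 nM proteasome in added enzyme buffer; Also added: Ub-AMC substrate from 1 µM stock; Incubation: 30 min compound-proteasome preincubation then 25 min substrate reaction, room temperature; Detection: fluorescence, ex 355 nm, em 460 nm; Read-out: % inhibition of Ub-AMC cleavage fluorescence; Benchmarks: no-proteasome and no-compound wells.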
# ALR inh – blocks human ALR sulfhydryl oxidase activity; P55789; purified ALR, DTT oxidation, H2O2 HRP-luminol luminescence; inhibition, % (test concentration not listed); hit rate 3.8% among 290,000;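 active means mean and each replicate at 75% or more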;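 further: stock transfer was 7.5 nL into about 7.5 µL; 0% = neutral wells and 100% = wells with inactivated enzyme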
# HNF4A DNA FP – change in binding of human HNF4 alpha to DNA. activity change, % at 10 µM. HNF4a-FITC DNA binding, fluorescence polarization, 1 h. hit rate 0.3% among 360,000; in the data active means activity change above about 30%, passing the limit was not always enough;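 further: controls were the assay level and a saturating level of protein; the project sought stronger binding though the title names inhibitors; some compounds called inactive have numbers as strong as hits; positive values seem to mean higher polarization but the record does not say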
# Ecoli rRNA inh OD600 – second read-out of Ecoli rRNA inh, no call of its own (marks repeat the call); OD600 change, %; measured here: OD600 growth;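 optical density of the mix in the first replicate; 0 = DMSO median and -100 = no signal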
# Ecoli rRNA inh RFP – second read-out of Ecoli rRNA inh, no call of its own (marks repeat the call); RFP signal change, %; measured here: RFP humanized mutant strains;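 first replicate; 0 = DMSO median and -100 = no signal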
# * = called active by the depositor; i = inactive; · = no result given. This is a subset; the hit share may differ from the screen's.
# The opening 4 compounds, ahead of the listing:
SMILES,FGF22 binding,B2AR ag,Ecoli rRNA inh,Ecoli rRNA inh OD600,Ecoli rRNA inh RFP,Ecoli growth,UCH37 DUB inh,ALR inh,HNF4A DNA FP
Cc1ccc(C)c(-n2c(-c3csc(C)c3C)n[nH]c2=S)c1,·,-2,·,·,·,0.74,0.6,89*,-0.7
COc1ccc(C)cc1S(=O)(=O)N(C)CC(N)=O,·,-6,·,·,·,0.79,-0.3,-3,8.8
COc1ccccc1NC(=O)CSc1nc(N)c(C#N)cc1C#N,i,0,21,18,32,0.63,-1.2,-3,20
COc1ccc(S(=O)(=O)NCC2CCCN(Cc3cccnc3)C2)cc1 (stereo not drawn),·,4,17,14,1.8,0.63,2.3,-1,-0.3

# All compounds of this part, previewed entries included:
SMILES,FGF22 binding,B2AR ag,Ecoli rRNA inh,Ecoli rRNA inh OD600,Ecoli rRNA inh RFP,Ecoli growth,UCH37 DUB inh,ALR inh,HNF4A DNA FP
Cc1ccc(C)c(-n2c(-c3csc(C)c3C)n[nH]c2=S)c1,·,-2,·,·,·,0.74,0.6,89*,-0.7
COc1ccc(C)cc1S(=O)(=O)N(C)CC(N)=O,·,-6,·,·,·,0.79,-0.3,-3,8.8
COc1ccccc1NC(=O)CSc1nc(N)c(C#N)cc1C#N,i,0,21,18,32,0.63,-1.2,-3,20
COc1ccc(S(=O)(=O)NCC2CCCN(Cc3cccnc3)C2)cc1 (stereo not drawn),·,4,17,14,1.8,0.63,2.3,-1,-0.3
CCOc1ccc(CCNC(=O)C2CCN(S(=O)(=O)c3ccc(C)cc3)CC2)cc1OCC,i,12,6,9,0.7,0.67,0.6,-8,3.8
Cc1ccccc1SCC(=O)Nc1cccc(C#N)c1,·,3,·,·,·,0.69,7.2,-7,1.0
CC(=O)Nc1ccc(OCC(=O)c2ccc(C)cc2C)cc1,·,-21,·,·,·,0.69,0.8,3,-0.4
Cc1c(O)c(CN(C)C)cc2c1oc(=O)c1ccccc12,i,1,-14,-25,4.5,0.65,2.9,97*,7.3
CCCn1nnc(NC(=S)NC(=O)Cc2ccccc2)n1,i,6,15,17,3.2,0.69,0.6,11,1.4
CCc1cccc(CC)c1NC(=O)CN1C2CCCC1CC(NC(=O)Nc1cccc(OC)c1)C2 (stereo not drawn),·,7,-29,-23,1.2,0.68,-0.9,·,-16
O=C(NCc1ccc(F)cc1)C1CCCN(S(=O)(=O)c2cccc3nsnc23)C1 (stereo not drawn),·,-7,·,·,·,0.74,1.5,-14,16
Cc1n[nH]c2c([N+](=O)[O-])c(=O)[nH]c(=O)n12,i,2,3,3,2.6,·,·,·,1.2
Cc1cc(C)n(CC(=O)Nc2ccccc2)n1,·,4,·,·,·,0.66,0.8,-6,-1.3
CCC(CO)N=CC1=C(O)CC(c2ccccc2)CC1=O (stereo not drawn),i,5,11,9,1.4,0.64,0.8,·,1.5
CCSc1nnc([C@H](Cc2c[nH]c3ccccc23)NC(=O)OC(C)(C)C)o1,·,1,·,·,·,0.66,-0.8,·,-4.0
COc1ccc(C(=O)COC(=O)Cn2cnc3c2c(=O)n(C)c(=O)n3C)c(OC)c1,i,-3,-4,-4,-1.7,0.72,2.3,-8,1.1
O=C(CC(c1ccccc1)c1ccco1)N1CCOCC1 (stereo not drawn),·,-2,·,·,·,0.76,0.8,-4,0.1
O=C(N/N=C/C1CC=CCC1)c1cc2ccccc2cc1O (stereo not drawn),·,12,·,·,·,·,·,2,3.1
N#Cc1ccc(C23CC4(C2)[C@H](CN(Cc2ccc(-c5ccccc5)cc2)[C@@H]4c2ccccc2)C3c2ccc(C(F)(F)F)cc2)cc1 (stereo partly drawn),i,·,8,0,-5.2,·,-0.3,-10,·
O=C1CCc2cc(S(=O)(=O)NCCCC(=O)N3CCN(Cc4ccc5c(c4)OCO5)CC3)ccc2N1,i,0,2,6,1.9,0.66,2.6,1,4.0
O=C(c1ccc(Cl)cc1)c1cnc(Nc2ccccc2)s1,·,-5,·,·,·,0.74,-8.2,25,-2.7
O=C(Nc1ccccc1)c1nc[nH]c1C(=O)NCCNC(=O)c1[nH]cnc1C(=O)Nc1ccccc1,i,4,5,10,8.0,0.66,-2.2,4,3.3
O=C(Nc1ccc(Nc2ccccc2)cc1)c1ccccc1F,i,6,-8,13,-5.3,0.63,3.6,99*,1.8
COc1ccc(-c2noc(C3CCCN(S(=O)(=O)c4cccc(Cl)c4C)C3)n2)cc1OC (stereo not drawn),·,5,·,·,·,0.73,0.3,-1,-1.3
O=C(COC(=O)C1COc2ccccc2O1)NC(=O)NC1CCCCC1 (stereo not drawn),·,-3,·,·,·,0.74,3.0,-5,7.1
CC(C)(C)S(=O)(=O)c1ccccc1C(=O)O,·,-4,·,·,·,0.75,3.7,-4,-5.6
CCCn1c(-c2nonc2N)nc2ccccc21,·,10,·,·,·,0.63,1.2,-3,5.5
CC(=O)Nc1ccc(-c2nnc(SCc3ccc(C)cc3)n2C)cc1,·,42*,·,·,·,0.66,-0.5,-5,2.0
Cc1ccc2nc(NCCc3ccc(Cl)cc3)c3nncn3c2c1,i,-15,6,6,-10,0.73,-25,0,3.8
Cc1cc(=O)cc(C)n1-c1ccc(O)cc1,i,0,13,9,1.3,0.68,4.7,-9,2.1
O=C(/C=C/Nc1ccc([N+](=O)[O-])cc1)c1ccc(Br)cc1,i,-2,10,4,3.1,·,·,-5,14
CN1CCN(c2ccc([N+](=O)[O-])cc2NC(=O)c2ccco2)CC1,i,-7,2,-1,0.3,0.72,5.4,-18,0.2
N#CC[C@H](c1ccccc1)N1CCN(Cc2ccccc2)CCC1=O,i,4,2,3,-1.1,·,5.1,-3,1.3
CC(=O)c1cccc(CN2CCCCC2C(=O)Nc2ccc(Oc3ccccc3)nc2)c1 (stereo not drawn),·,5,-7,-8,5.0,0.73,4.6,-6,0.7
CC1CCCC(C)N1C(=O)COC(=O)c1nn(C)c(=O)c2ccccc12 (stereo not drawn),i,9,2,8,1.0,0.68,1.1,-5,1.2
COc1ccc(-c2nc3c(c(=O)[nH]c(=O)n3Cc3ccccc3)n2Cc2ccccc2)cc1,·,-14,·,·,·,0.71,-19,-10,1.1
COc1ccc(Cc2noc(CN(C)C3CC(C)(C)NC(C)(C)C3)n2)cc1OC,i,-2,6,0,4.2,0.66,5.9,-8,0.1
CCCCn1c(N)c(N(CC(C)C)C(=O)CCN2C(=O)C3CC=CCC3C2=O)c(=O)[nH]c1=O (stereo not drawn),i,·,-2,4,-2.5,·,·,·,1.1
O=C(CCl)NCCCCCCCCCNC(=O)CCl,i,-7,8,-5,4.4,0.69,0.6,16,0.9
CCC(=O)NC(=S)Nc1ccc2oc(-c3ccc(OC)cc3)nc2c1,i,-14,17,18,-2.0,0.69,-0.8,9,0.8
COC(=O)c1c(NC(=O)C2c3ccccc3Oc3ccccc32)sc(C)c1C,·,5,·,·,·,0.77,-0.8,-22,1.8
CCOC(=O)c1cnc2nc(C)[nH]n2c1=O,·,-4,·,·,·,0.74,0.1,·,1.1
Cc1cc(C)nc(N(C#N)CC(=O)N2CCC(C(N)=O)CC2)n1,·,-1,·,·,·,0.71,1.8,-2,4.4
COc1cccc(CNC(=O)[C@@H]2CCCN2C(=O)[C@@H]2CCCN2C(=O)c2c(F)cccc2F)c1,i,·,1,7,0.5,·,·,·,2.2
N#Cc1ccc(CNc2cnccn2)cc1,i,6,8,0,-5.7,0.7,-190,·,0.9
CCC(=O)Nc1cccc(C2=NOC3(C2)C[C@@H](C(N)=O)N(C(=O)c2cc([N+](=O)[O-])cc([N+](=O)[O-])c2)C3)c1 (stereo partly drawn),i,-5,-4,14,-0.7,·,2.0,-26,-1.6
COc1ccc(OC)c(/C=C2\SC(N3CCCC(C)C3)=NC2=O)c1 (stereo not drawn),i,0,-34,-53,-6.5,0.69,-12,2,2.6
Cc1ccc(-c2nc3c(c(=O)c4ccccc4n3C)c(=O)n2-c2ccc(F)cc2)cc1,i,-16,18,19,-0.9,0.64,5.4,-3,4.2
COCCn1c(C)cc(C(=O)COC(=O)/C=C/c2cccc(OC)c2)c1C,i,1,-18,-26,-3.9,0.67,-4.8,3,5.5
CC(C)N(Cc1nnc(-c2ccc(Cl)cc2)o1)C(=O)C1=COCCO1,i,-3,6,-1,1.2,0.71,0.7,1,-2.3
Cc1cc(NC(=O)CSc2ccc3nnc(-c4cccnc4)n3n2)no1,i,-9,3,5,3.1,0.72,-15,-11,3.7
c1ccc(CN=C(NCc2ccccc2)NCc2ccccc2)cc1,i,5,-60,-79,-14,0.69,2.0,·,2.7
CC(C)(C)C(=O)O/N=C(\N)COc1cccc(Cl)c1,i,6,6,12,1.4,·,·,-4,4.5
Cc1cc(NC(=O)CCC(=O)N(CC2CCCO2)C(C(=O)NC2CCCC2)c2cccnc2)no1 (stereo not drawn),·,-16,·,·,·,0.67,1.4,2,-3.0
CC(C)CCSc1nc2c(c(=O)[nH]c(=O)n2C)n1CCc1ccccc1,·,-4,·,·,·,0.72,3.2,·,-2.3
O=C(NC1CCOc2ccccc21)C1CCCC1 (stereo not drawn),i,-6,2,5,-2.4,0.71,0.5,-3,3.9
COc1ccccc1CCNS(=O)(=O)CCNC(=O)c1ccc2c(c1)OCO2,i,-4,8,-2,0.7,0.7,3.2,·,-0.9
CCN(C(=S)NC(=O)CCc1ccccc1)c1ccccc1,i,5,·,·,·,0.71,2.3,77*,-1.1
C=CCc1ccccc1OCC(O)CN1C(=O)c2ccccc2C1=O (stereo not drawn),i,-4,-14,-8,-1.7,0.66,4.9,-11,-4.7
CC1(C)C2CCC1(C)C(OC(=O)c1ccccc1C(=O)O)C2 (stereo not drawn),i,4,0,-2,-5.5,0.64,2.7,-2,-3.8

# The listing continues.
SMILES,FGF22 binding,B2AR ag,Ecoli rRNA inh,Ecoli rRNA inh OD600,Ecoli rRNA inh RFP,Ecoli growth,UCH37 DUB inh,ALR inh,HNF4A DNA FP
COCCN1C(=O)c2ccccc2C(C(=O)N2CCN(c3ccccn3)CC2)C1c1ccc(F)cc1 (stereo not drawn),·,-18,·,·,·,0.69,-4.4,·,1.9
Cc1cc(C(=O)NCCCN2CCCC2=O)no1,·,-2,·,·,·,0.66,4.4,-5,-0.5
O=C(Nc1nccs1)c1csc([C@H]2C[C@H](O)[C@@H](CO)O2)n1,i,·,6,11,-4.6,·,·,·,-4.7
COC(=O)c1ccccc1C(=O)N1CCCC(C(=O)c2cc(F)ccc2F)C1 (stereo not drawn),i,8,1,1,3.1,0.69,5.1,0,2.4
COc1cccc(NC(=O)N(CCCN2CCOCC2)C(C)c2cc3ccccc3o2)c1 (stereo not drawn),i,-1,-7,-11,3.7,0.67,5.5,0,0.9
CC1CCN(CCCN2C(=O)C3C(C(=O)Nc4cccc(Cl)c4)C4C=CC3(O4)C2C(=O)NC2CCCCC2)CC1 (stereo not drawn),i,-9,0,7,0.6,0.67,3.3,-2,0.0
CCC(CC)C(=O)Nc1cccc(/C(C)=N/NC(=O)c2c(Br)cnn2C)c1,·,-5,·,·,·,·,·,-9,-0.1
COc1cc(/C=N/NC(N)=O)cc([N+](=O)[O-])c1O,i,8,5,3,-0.1,·,·,59,0.9
CCOC(=O)[C@@H](CCc1ccccc1)N[C@H](C)C(=O)N1[C@H](C(=O)O)C[C@@H]2CCC[C@@H]21,i,-12,1,-5,-5.9,·,2.4,-13,1.0
O=C(O)c1ccccc1-c1ncc(-c2ccccc2)o1,i,3,-6,-4,-1.8,0.68,-68,-6,2.2
